Autofluor counter: compound fluorescence in toxin protease inhibitor counterscreen; AID 624483; fluorescence intensity (no concentration beside the values); 360,000 tested, 3.1% active; compound autofluorescence counterscreen, microsphere flow cytometry; stronger effect = higher value;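 active = at least 3 SD above the mean of all compounds, about 16000 in these data; inconclusive = too few beads counted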;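 also: 100 nL of 1 mM stock went into each well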
Sa RN4220 lethal: growth inhibition of S. aureus RN4220, primary screen, OD600 | 330,000 tested, 0.33% active | inhibition, % (concentration not given with the values) | 16 h;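 active = z-score of -3 or lower and OD600 up to 0.18 on both plates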;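 also: plate controls were untreated cells for no effect and reference antibiotic for full effect; stock transfer was 100 nL into about 80 µL; one replicate is shown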
Mtb hypoxia inh: PubChem AID 1159583; M. tuberculosis hypoxia-regulated fluorescent reporter, fluorescence; fluorescence inhibition, % (test concentration not listed); 300,000 tested, 0.1% active;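 active = 35 to 45% if threefold the growth effect, above 45% if 1.5-fold the growth effect; inactive = the rest, general growth blockers included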;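 also: wells of about 50 µL received 100 nL stock; 0% = vehicle wells and 100% = reference inhibitor wells; whole bacteria with a GFP reporter of the hypoxia response; strong numbers were not always called active; many hits fall short of the cut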
ugtP null kill: growth inhibition of ugtP-null S. aureus, primary screen, RN4220 ugtP deletion, OD600; 16 h; some inactives read as strong as hits; growth inhibition, % (concentration not given with the values); 330,000 tested, 0.54% active; AID 1259309, 2017;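 active = z-score under -3 and OD600 up to 0.15 on both plates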;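 also: plate controls were untreated wells for no effect and antibiotic for full effect; wells of about 80 µL received 100 nL stock; the first replicate is given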
PrP 5UTR inh: inhibition of PrP 5' UTR reporter expression. inhibition, % (test concentration not listed). 340,000 tested, 0.35% active. cell-based PrP 5' UTR mRNA reporter, plate reader. AID 488862, 2010;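 active = every replicate at 50% or more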;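 also: 0 = median of the neutral control wells; tested in H4 reporter cells; numbers are from one replicate; inactives centre near -14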
BJeLR lethal: MLPCN primary cell-based screen for lethality selective to Ras in HRASV12 cells; BJeLR (HRASV12) viability, CellTiter-Glo ATP luminescence, 48 h; reference of the scale not given here; inhibition, % (no concentration beside the values); AID 1554, 2009; 300,000 tested, 0.17% active;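 active = replicate mean above 50%; inconclusive = above 50% but judged a plate artefact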;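 also: 50 nL library stock added to about 25 µL; numbers are from one replicate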
Mtb hypoxia inh growth: further read-out of Mtb hypoxia inh, marked with its call; growth inhibition, %; measured here: M. tuberculosis growth (absorbance);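 0% = vehicle and 100% = reference antibiotic; read after six days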
* hit, by the source's call; ? = inconclusive; . = not tested or not shown; & = joins results of further samples.

SMILES	ugtP null kill	Mtb hypoxia inh	Mtb hypoxia inh growth	Autofluor counter	Sa RN4220 lethal	BJeLR lethal	PrP 5UTR inh
O=C(c1ccc(F)cc1)C1CCN(C(=O)Nc2ccc(F)cc2)CC1	-2.8	0.9	7.3	4050	-4.9	-3.7	-14.0
C=CCC(CC(=O)N(CCO)Cc1ccccc1)C(=O)NC(COC(=O)C(CC=C)Cc1ccc(F)cc1)Cc1c[nH]c2ccccc12 (stereo unspecified)	-1.8&9.6&0.6	-4.3&6.4&-3.8	-1.5&2.6&-3.2	.	-4.9&0.8&-10.1	.	.
Cc1ccc(S(=O)(=O)/C(C#N)=C/c2c(Oc3ccc(Cl)cc3)nc3c(C)cccn3c2=O)cc1	-0.2	10.1	6.2	.	2.9	-18.8	.
O=C(NCCN1CCOCC1)c1ccc(/C=C2\Sc3ccccc3N(Cc3ccccc3F)C2=O)cc1	-2.4	-8.3	-6.9	5735	2.0	7.1	7.0
CCOC(=O)NN=C(C)c1ccc(Oc2ncccn2)cc1	0.6	0.3	3.1	.	1.8	.	.
CCN1CCN(Cc2ccc(NC(=O)Nc3cccs3)cc2)CC1	-4.5	6.6	6.1	2707	-11.5	14.6	-76.0
Nc1c(Cl)ncnc1N1CCOCC1	12.7	17.7	6.5	13067	5.8	-0.9	-12.8
COc1ccc(-n2nc3c(c2NC(=O)COc2ccccc2F)CS(=O)(=O)C3)cc1	0.3	4.4	5.4	5412	3.7	-6.2	-1.9
Cc1ccc2c(C)nc(Nc3nc(CSc4nnnn4-c4ccccc4)cc(=O)[nH]3)nc2c1	-30.0	13.2	2.8	14839	7.8	12.4	22.5
Cc1nn(C)cc1CNC(=O)c1cnn2c1NC(c1ccc(Br)cc1)CC2C(F)(F)F (stereo unspecified)	3.7	-9.9	0.3	10589	2.3	-2.1	-20.5
CC(C)[C@H](NC(=O)c1ccco1)C(=O)NCc1ccccc1	8.9	1.3	-8.3	3663	3.2	-0.3	-41.9
N#CC(C(=O)Nc1ccc(Cl)c(Cl)c1)=C1Nc2ccccc2N1	-13.2	10.4	1.7	4850	-10.5	9.6	0.6
Cc1cccc(NC(=O)COC(=O)c2ccccn2)c1	-6.0	3.4	-1.3	5383	5.5	-13.3	-6.2
O=C(CSc1nc2ccccc2c(=O)n1Cc1ccco1)Nc1cccc(O)c1	-1.8	14.3	11.1	4523	-2.0	-6.0	-0.2
CCn1c(CC(=O)Nc2ccc(F)cc2)nnc1SCC(=O)NC1CCCC1	-0.1	1.7	0.6	3047	3.6	-6.2	-2.3
CCCCCOCC1CC(C/C(C)=N/NC(N)=S)C(=O)O1 (stereo unspecified)	.	.	.	2144	.	2.6	-9.9
CCCCNC(=O)CC1N=C2c3ccccc3N=C(SCC(=O)Nc3cccc(C)c3)N2C1=O (stereo unspecified)	-2.3	.	.	4738	1.9	-3.3	-34.4
CC1CCN(N=Nc2nc3c([nH]2)c(=O)n(C)c(=O)n3C)CC1	3.8	11.7	8.9	4242	4.8	.	-19.0
CC1CN(C(=O)/C(=C/c2ccco2)NC(=O)c2ccccc2)CC(C)O1 (stereo unspecified)	-2.0	-10.8	-4.8	5612	0.9	2.2	-15.7
C[C@H](CO)N1C[C@H](C)[C@@H](CN(C)Cc2ccc(C(=O)O)cc2)Oc2c(NS(=O)(=O)c3cccs3)cccc2C1=O	2.8	4.6	8.0	3433	3.5	.	-27.5
COc1ccc(CS(=O)(=O)c2ncn[nH]2)cc1	8.5	15.4	5.1	3999	0.7	5.3	-32.1
O=[N+]([O-])c1ccccc1OCCOCCOc1cccc2cccnc12	3.0	9.5	-0.4	3784	5.4	-1.8	-16.6
Cc1ccc2c(c1)C(c1ccccc1)N(C(=O)c1ccc(S(=O)(=O)N3CCOCC3)cc1)CC(=O)N2 (stereo unspecified)	19.3	-4.9	2.4	2691	5.9	-11.9	4.0
CCOC(=O)C1(Cc2ccccc2)CCN(Cc2cccc(OC)c2O)CC1	5.4	13.3	8.9	4947	1.3	1.4	-25.0
O=C(Nc1ccc(F)cc1)C(=O)c1c(O)[nH]c2ccc([N+](=O)[O-])cc12	5.2	-5.0	-17.9	3587	5.0	-1.4	.
CCC(CO)Oc1cc(NC(=O)c2ccccc2[N+](=O)[O-])c2ncn(C(C)C)c2c1 (stereo unspecified)	3.0	3.8	11.6	4165	6.7	.	-13.2
Cc1onc(-c2ccccc2)c1C(=O)Nc1ccccc1C#N	-1.4&-2.4	.	.	3977&5298	6.0&9.4	-3.3	-2.5&-12.1
CC(C)CNC(=O)C(=O)NCCC1CCCCN1S(=O)(=O)c1cccs1 (stereo unspecified)	3.8	4.7	-3.4	4425	2.7	-2.3	-17.4
CCOC(=O)C1=CN(Cc2cccc(Br)c2)S(=O)(=O)NC1C (stereo unspecified)	-6.5	4.0	-0.3	3727	4.7	.	-9.3
CCN(CC)S(=O)(=O)c1ccc2oc(C(=O)NCCCN3CCOCC3)c(C)c2c1	-0.5	4.7	8.4	6557	2.5	0.3	-71.4
CCOC(=O)N1CCC(NC(=O)c2cc(C(=O)Nc3cccc(C(F)(F)F)c3)ccc2CO)CC1	5.1	-1.5	-5.0	2107	5.8	21.3	-3.7
COc1ccc(/C=C(\NC(=O)c2ccccc2)C(=O)NCCC(=O)O)cc1	3.2	4.8	-5.4	4768	9.5	.	-7.8
Cc1ccc(CN2CCN(CC(=O)NC(C)c3ccc4c(c3)OCCO4)C2=O)cc1 (stereo unspecified)	0.9	0.3	3.3	4989	2.4	2.0	-22.8
C/C(=N/NS(=O)(=O)c1ccc(C)c(C)c1)c1c[nH]c2ccccc12	.	.	.	6305	.	11.0	-12.4
CCCOc1nc2c(c(=O)n(C)c(=O)n2C)n1C	0.1	0.7	6.6	3788	3.2	-3.1	-10.9
CC(=O)Oc1cc(C(=O)OCC(=O)N2CCc3ccccc3C2)cc(OC(C)=O)c1OC(C)=O	2.4	9.5	-0.8	2936	11.4	.	-14.6
CCOC(=O)CNC(=S)N(Cc1ccco1)Cc1ccccc1Cl	11.2	5.2	6.1	4096	3.5	-17.9	-11.2
Cc1nn(C)c(C(=O)NN=Cc2cccc3ccccc23)c1Cl	7.8	-0.1	-0.8	.	10.3	.	.
Cc1ccc(-c2c[n+](Cc3ccc(Cl)cc3)c3n2CCC3)cc1	10.1	19.5	6.0	6109	1.8	18.8	-12.7
COC(=O)c1cccc(NC(=O)C2CCCN2C(=O)c2cccs2)c1 (stereo unspecified)	9.7	-0.1	0.5	4694	4.7	.	-3.4
CCCCn1c(N)c(NCCC)c(=O)[nH]c1=O	0.2	8.0	3.2	2029	0.5	-10.8	-16.1
COC(=O)C1=C(C)N(c2ccc(OC)cc2)C(C)=C(C(=O)OC)C1c1ccc(OC)cc1	10.1	14.7	14.4	4170	-1.8	10.0	.
C#CCN1C(=O)S/C(=C\c2ccc(N3CCOCC3)cc2C)C1=O	3.9	4.9	-0.3	2666	9.0	-3.4	-98.9
Cc1cc(C)nc(NC2=NCCS2)n1	2.1	11.4	-2.7	3252	4.5	1.9	-6.3
Cc1ccc(Cl)cc1NC(=O)C1CCCCC1C(=O)O (stereo unspecified)	-5.0	6.2	-0.6	4612	3.2	-1.8	-10.1
CCN1CC2C3CCC(C)(O3)C2C1 (stereo unspecified)	.	.	.	3994	.	7.7	-14.4
Cc1cc(/C=N/n2cnnc2)c(C)n1-c1ccc(OCc2ccccc2F)cc1	.	.	.	11396	.	2.6	-15.9
COc1ccc(/C=N/Nc2cc(C)nc3c(C)cccc23)cc1	.	.	.	4464	.	7.0	-28.0
CCN(C(=O)Cn1c(=O)oc2ccccc21)c1ccc(C)c(C)c1	-0.1	2.3	-0.6	2904	-1.3	-1.6	-24.9
O=C(OCc1ccc(Cl)cc1Cl)c1ccncc1	7.3	18.9	1.0	9466	8.4	5.8	-21.7

(cont.)
SMILES	ugtP null kill	Mtb hypoxia inh	Mtb hypoxia inh growth	Autofluor counter	Sa RN4220 lethal	BJeLR lethal	PrP 5UTR inh
O=C(Nc1ccccc1N1CCOCC1)c1ccc2nc[nH]c2c1	9.4	15.1	10.7	3042	1.7	-2.1	-22.0
COC(=O)c1ccc(C(=O)OC)c(NC(=S)N2CCN(c3cc(Cl)ccc3C)CC2)c1	-2.7	1.7	-4.0	2513	-1.1	-5.4	-1.1
CC(=O)CCSc1nnc(-c2cccc(S(=O)(=O)N3CCOCC3)c2)o1	5.7	-17.9	-22.6	?	2.3	-5.9	-2.7
CCN(CC)CCNC(=O)C1(c2ccccc2)CCCCC1	5.0	4.9	3.8	3762	4.3	.	-15.6
COc1ccc(NC(=O)CN(c2cc(C)cc(C)c2)S(=O)(=O)c2c(C)n[nH]c2C)cc1	7.2	.	.	5622	14.5	.	-10.1
Nc1nonc1-n1nnc(C(=O)NN=Cc2ccco2)c1-c1ccccc1	-0.5	8.2	7.6	.	2.9	.	.
COc1ccc(-n2nc3c(c2NC(=O)CCCl)CSC3)cc1	16.7	10.3	8.5	3880	1.7	1.7	-13.1
Cc1ccn(CC(=O)NC2CC(C)(C)Cc3c2cnn3-c2ccc(F)cc2)n1 (stereo unspecified)	0.0	-2.1	0.9	5673	3.2	0.4	-31.9
CSc1ccc(NC(=O)c2cccnc2)cc1C#N	-0.1	17.0	11.5	4157	3.0	1.8	-65.1
CCCCc1ccc(S(=O)(=O)N/N=C(/C)c2ccncc2)cc1	.	.	.	4423	.	-3.3	-13.4
C#Cc1ccc([C@H]2C=C(C(=O)N3CCN(Cc4ccc5c(c4)OCO5)CC3)O[C@@H](OCC)[C@@H]2CCCO)cc1	.	.	.	3665	.	-1.6	-9.3
CC(=NNC(=O)c1nnn(-c2nonc2N)c1-c1ccc2c(c1)OCO2)c1ccc(C)cc1	9.2	-2.2	-7.8	.	2.1	.	.
Cc1nnc(NC(=O)CSc2nnc(C)n2Cc2ccccc2)s1	3.3	4.2	0.5	9095	0.7	6.4	2.4
c1ccc2c(N3CCOCC3)nc(-c3ccncc3)nc2c1	-2.3	.	.	3791	-1.4	-2.7	-3.2
O=C(/C=C/c1cccc(F)c1)OCC(=O)c1ccc[nH]1	-4.1	8.3	9.5	5316	8.4	.	.
CCc1ccc(Nc2nnc(SCC(=O)Nc3sccc3C(N)=O)s2)cc1	-20.2	-1.4	2.0	?	3.3	-10.3	-18.1

Assay outcomes: PubChem, several laboratories
